Screening results (PubChem BioAssay)
Six1-Eya2 inh – qHTS Assay for Inhibitors of the Six1/Eya2 Interaction | 360,000 tested, 0.56% active | AID 651725, 2012 | activity change, % (no concentration beside the values) | Homeobox protein SIX1 (Homo sapiens) + Protein phosphatase EYA2 (Homo sapiens), … | AlphaScreen GST-Six1/His-Eya2 binding, biochemical; active compounds read low; control for the full effect not named in the record; in the data active = activity change below about -65%; inconclusive = about -30% to -65%; inactive = above about -30%; also: % is scaled to controls: 0 for no effect and ±100 for the full control effect
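Six1/Eya2 binding was read as AlphaScreen signal after compounds were pinned into GST-Six1 plus His-tagged Eya2 (5X stock 250/500 nM) in pH 8.0 Tris/NaCl/TCEP buffer, beads added, then incubated 1 h, 37 C, dark.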
Sfp PPTase inh – qHTS Assay for Inhibitors of Bacillus subtilis Sfp phosphopantetheinyl transferase (PPTase). 4'-phosphopantetheinyl transferase ffp (Bacillus subtilis), Q9F4F7. Biochemical Sfp PPTase activity, qHTS. Potency, µM, without a hit: max response, negative = inhibition, actives largely listed as inhibitors. 310,000 tested, 3.5% active. AID 1490, 2009; active = well fitted inhibition curve with a large enough effect; inconclusive = small, poorly fitted or top-dose-only effect, or another doubt; inactive = no such curve, though single readings can be large or run the other way;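 also: the enzyme is Sfp with the accession as filed and its product quenches rhodamine fluorescence; potency is read from the fitted curve at half-maximal effect; 0% = enzyme reaction without inhibitor and -100% = no enzyme wells; top concentration of the series not given in the record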
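Reaction rates are the 30-min fluorescence difference (ex 525, em 598 nm) in wells containing 15 nM Sfp, 5 uM rhodamine-CoA and 12.5 uM BHQ-2-YbbR at pH 7.6 with 10 mM MgCl2.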
D2 PAM – Beta-Arrestin HTS for Positive Allosteric Modulators of the Human D2 Dopamine Receptor: Potentiators. D(2) dopamine receptor (Homo sapiens), P14416. potentiation, % (no concentration beside the values). DiscoveRx D2 beta-arrestin cells, luminescence, 90 min; 100% = 57 uM dopamine signal. 360,000 tested, 0.23% active; active = potentiation of 50% or more; inconclusive = 30% to 50%; inactive = 30% or less;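 also: compound concentration not given in the record; tested on top of an EC20 dose of dopamine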
Target sequence (P14416 whole entry, looked up): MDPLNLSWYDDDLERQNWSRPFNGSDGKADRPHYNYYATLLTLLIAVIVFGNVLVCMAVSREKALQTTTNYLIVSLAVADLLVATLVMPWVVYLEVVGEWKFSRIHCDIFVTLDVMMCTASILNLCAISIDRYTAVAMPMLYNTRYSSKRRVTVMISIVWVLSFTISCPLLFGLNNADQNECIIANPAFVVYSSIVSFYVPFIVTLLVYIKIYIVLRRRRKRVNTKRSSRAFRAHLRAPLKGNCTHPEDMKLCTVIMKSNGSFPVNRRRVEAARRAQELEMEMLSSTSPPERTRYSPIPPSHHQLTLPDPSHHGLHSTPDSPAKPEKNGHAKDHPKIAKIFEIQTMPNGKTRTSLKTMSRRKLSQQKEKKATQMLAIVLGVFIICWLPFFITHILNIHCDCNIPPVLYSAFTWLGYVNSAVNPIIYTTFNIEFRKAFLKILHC
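PathHunter D2 cells, attached overnight at 37 deg C, received compound in DMSO plus dopamine at EC20 (50 nM final) for 90 min at 37 deg C. Beta-arrestin recruitment was read as luminescence after 1 h with detection reagent at ambient temperature.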
TRPV1 PAM – HTS Assay for Compounds that Act as Potentiators of the Vanilloid Receptor 1; Transient receptor potential cation channel subfamily V member 1 (Homo sapiens), Q8NER1; TRPV1-expressing cells, Fluo-8 calcium influx, capsaicin EC20 potentiation; host cell line not named in the record; control for the full effect not named in the record; potentiation, % at 8.33 µM; 320,000 tested, 0.02% active; active means potentiation above 80%; inconclusive means 30% to 80%; inactive means below 30%; also: 0% is about no effect
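Cells expressing TRPV1 were dye-loaded with Fluo-8 and read kinetically: 10 s baseline, 3 min after compound (agonist portion), then 2 min after EC20 capsaicin (allosteric enhancer portion). Calcium-bound dye fluorescence at 480/520 nm.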
CtBP-E1A blk – qHTS Assay for Inhibitors of the CtBP/E1A Interaction; AlphaScreen GST-E1A/His-CtBP binding, 1536-well; active compounds read low; control for the full effect not named in the record; activity change, % (no concentration beside the values); 340,000 tested, 0.49% active; AID 651724, 2012; in the data active means activity change below about -65%; inconclusive means about -30% to -65%; inactive means above about -30%; also: % is scaled to controls: 0 for no effect and ±100 for the full control effect
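Steps: dispense buffer (Tris pH 8.0, NaCl 300 mM, TCEP 1 mM, BSA, Tween 20); add 5X protein mix (GST-E1A, His-CtBP, 125 nM each); pin 23 nL compound; 2 h at 37 °C, dark; add 5X beads (50 ug/mL); 1 h; read.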
D2 ag – Beta-Arrestin HTS for Positive Allosteric Modulators of the Human D2 Dopamine Receptor: Agonists | DiscoveRx PathHunter D2 beta-arrestin, luminescence, 90 min; 100% = 57 uM dopamine signal | activation, % (concentration not given with the values) | 360,000 tested, 0.084% active; in the data active = activation above about 40%; inconclusive = about 15% to 40%; inactive = below about 15%; also: compound concentration not given in the record; the text of the record calls up to 30% inactive
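DiscoveRx PathHunter D2 beta-arrestin cells (2,100/well) attached overnight, then compound-stimulated 90 min at 37 C in HBSS/10 mM HEPES/0.1% Tween-20 buffer; beta-galactosidase complementation read by luminescence after 1 h at ambient temperature. Dopamine 57 uM final (EC100) as control.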
PINK1 expr mod – A Quantitative High throughput Screen to Identify Chemical Modulators of PINK1 Expression | AID 624263, 2012 | PINK1 immunofluorescence, high-content cytometry, 24 h | 410,000 tested, 0.2% active | Potency, µM (highest dose often 76.6 µM), without a hit: at the highest dose activation (PINK1 increase), most hits filed as activators; active = well fitted activation curve with a large enough effect; inconclusive = small, poorly fitted or top-dose-only effect; inactive = flat fitted curve, though single readings scatter; cell line not stated here;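 also: potency is read from the fitted curve at half-maximal effect; % of control where 0% means no effect; nearly all actives have a fitted effect of over 65% in size; a mitochondrial uncoupler was the plate control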
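Cells are seeded, rested 12 hours, then given compound at five concentrations or DMSO for 24 hours. After fixation, blocking and antibody staining, PINK1 amount and mitochondrial localization are scored; CCCP serves as control.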
* = called active by the depositor; [ ] = dose if it differs, or a comment.

What do the screens show for `CN(C)S(=O)(=O)c1cccc(C(=O)Nc2ccc(Cl)cn2)c1`?
Six1-Eya2 inh: -2; Sfp PPTase inh: -26%; D2 PAM: -5; TRPV1 PAM: 0; CtBP-E1A blk: 18; D2 ag: -1.1; PINK1 expr mod: -1.2%[38.3 µM]

How did O=C(NNc1ccccn1)c1ccccc1CC[N+](=O)[O-] do in these assays?
Six1-Eya2 inh: -12; Sfp PPTase inh: -27%; D2 PAM: -7; TRPV1 PAM: -3; CtBP-E1A blk: -11; D2 ag: -3.6; PINK1 expr mod: -0.9%

Results for O=C1NC[C@H](CCCCN2C[C@@H](Cc3ccccc3)N(Cc3ccccc3)C(=O)C2=O)N(CCC2CCCCC2)C1=O ?
Six1-Eya2 inh: -7; CtBP-E1A blk: -2; PINK1 expr mod: 3.0%

What do the screens show for `CCN(Cc1ccccc1)S(=O)(=O)c1ccc2oc(C(=O)O)c(C)c2c1`?
Six1-Eya2 inh: 4; Sfp PPTase inh: 8%; D2 PAM: -4; TRPV1 PAM: -12; CtBP-E1A blk: -1; D2 ag: -1.8; PINK1 expr mod: 0.6%[38.3 µM]

How did CN(C(=O)c1cc(S(=O)(=O)N2CCCCC2)c[nH]1)C1CCCCC1 do in these assays?
Six1-Eya2 inh: 5; Sfp PPTase inh: 9%; D2 PAM: -4; TRPV1 PAM: -23; CtBP-E1A blk: 8; D2 ag: 5.7; PINK1 expr mod: 0.6%

What do the screens show for `COc1ccc(S(=O)(=O)Nc2ccc(OCC(=O)O)cc2)c2ccccc12`?
Six1-Eya2 inh: -8; Sfp PPTase inh: 22%; D2 PAM: -4; TRPV1 PAM: 1; CtBP-E1A blk: 2; D2 ag: -1.1; PINK1 expr mod: 0.8%

Results for COC(=O)c1ccc(C(=O)OC)c(NC(=O)c2cccnc2)c1 ?
Six1-Eya2 inh: -1; Sfp PPTase inh: -5%; D2 PAM: -3; TRPV1 PAM: 1; CtBP-E1A blk: -9; D2 ag: -1.2; PINK1 expr mod: -0.4%

Results for Cc1cc(C)cc(NC(=S)N2CCN(c3ccccn3)CC2)c1 ?
Six1-Eya2 inh: -6; Sfp PPTase inh: -7%; D2 PAM: -20; TRPV1 PAM: 0; D2 ag: 0.3; PINK1 expr mod: 1.4%

Results for O=C(c1ccccc1)N(Cc1ccco1)C1CCS(=O)(=O)C1 (stereo not given) ?
Six1-Eya2 inh: 7; Sfp PPTase inh: 13%; D2 PAM: -9; TRPV1 PAM: 7; CtBP-E1A blk: 2; D2 ag: -2.5

Results for COc1ccc(S(=O)(=O)NCC2CCCN(C(=O)C3CCCC3)C2)cc1 (stereo not given) ?
Six1-Eya2 inh: 8; Sfp PPTase inh: 17%; D2 PAM: -2; TRPV1 PAM: 3; CtBP-E1A blk: -4; D2 ag: -6.6; PINK1 expr mod: 0.5%

Results for CCOc1ccc(-n2cnc3sc4c(c3c2=O)CCCC4)cc1 ?
Six1-Eya2 inh: 0; Sfp PPTase inh: 9%; D2 PAM: -6; TRPV1 PAM: -2; CtBP-E1A blk: 14; D2 ag: -3.6; PINK1 expr mod: 4.0%

How did COc1ccc(NC(=O)c2ccc(Cl)cc2)c[n+]1[O-] do in these assays?
Six1-Eya2 inh: -8; Sfp PPTase inh: 18%; D2 PAM: -5; TRPV1 PAM: 1; CtBP-E1A blk: 4; D2 ag: 0.7; PINK1 expr mod: 1.4%

Results for Cc1cc(C)cc(NS(=O)(=O)c2ccc(NC(=S)NC(=O)c3ccc(Br)o3)cc2)c1 ?
Six1-Eya2 inh: -8; Sfp PPTase inh: inconclusive; D2 PAM: -45; TRPV1 PAM: -1; CtBP-E1A blk: -25; D2 ag: -2.9; PINK1 expr mod: 15%

What do the screens show for `COc1cc(Cc2cc(N)nc(N)n2)cc(OC)c1OC`?
Six1-Eya2 inh: -7; Sfp PPTase inh: 9%; D2 PAM: 0; TRPV1 PAM: 0; CtBP-E1A blk: 5; D2 ag: 3.1; PINK1 expr mod: 1.3%

Results for Cc1ccc(S(=O)(=O)N(C)C)cc1NC(=O)COC(=O)c1sc2cc(Cl)ccc2c1Cl ?
Six1-Eya2 inh: 13; Sfp PPTase inh: 19%; D2 PAM: -7; TRPV1 PAM: -10; CtBP-E1A blk: -6; D2 ag: -1.1; PINK1 expr mod: 4.1%

What do the screens show for `CCOc1ccccc1NC(=O)CS(=O)(=O)c1cn(CC(=O)N2CCOCC2)c2ccccc12`?
Six1-Eya2 inh: -6; Sfp PPTase inh: 11%; D2 PAM: -13; TRPV1 PAM: inconclusive; CtBP-E1A blk: -1; D2 ag: -0.7; PINK1 expr mod: 1.6%

How did COc1cc(C(=O)Nc2cccc(-c3nc4cc(C)ccc4o3)c2)cc(OC)c1OC do in these assays?
Six1-Eya2 inh: 1; Sfp PPTase inh: -11%; D2 PAM: -11; TRPV1 PAM: -1; CtBP-E1A blk: 0; D2 ag: 0.8; PINK1 expr mod: inconclusive

How did CCCOc1ccc(/C(CC)=N/NC(=O)C2(C)CC2(Br)Br)cc1 (stereo not given) do in these assays?
Six1-Eya2 inh: 2; Sfp PPTase inh: -6%; D2 PAM: -11; TRPV1 PAM: -9; CtBP-E1A blk: -5; D2 ag: -0.3; PINK1 expr mod: 9.9%

Results for O=C(CN1C(=O)C2CCCCC2C1=O)Nc1nc2ccc(F)cc2s1 (stereo not given) ?
Six1-Eya2 inh: 6; D2 PAM: 2; TRPV1 PAM: 0; CtBP-E1A blk: -1; D2 ag: -1.4; PINK1 expr mod: -4.4%

Results for O=S1(=O)N[C@H](Cc2ccccc2)COc2cccc(N3CCC[C@@H]3CO)c21 ?
Six1-Eya2 inh: 2; CtBP-E1A blk: -24; PINK1 expr mod: 0.3%

How did COc1cc2c(cc1OC)C(C(=O)Nc1cc(C)c(OC)c(C)c1)CC(=O)N2 (stereo not given) do in these assays?
Six1-Eya2 inh: -6; Sfp PPTase inh: 5%; D2 PAM: 10; TRPV1 PAM: -2; CtBP-E1A blk: -6; D2 ag: -3.9; PINK1 expr mod: -0.2%

Results for Fc1cccc(CCN2CCNC[C@@H]2CC2CCCCC2)c1 ?
Six1-Eya2 inh: -1; D2 PAM: -17; TRPV1 PAM: 3; CtBP-E1A blk: -1; D2 ag: -3.1; PINK1 expr mod: 4.8%

How did Cc1cc(NC(=O)C2CCCO2)ccc1Br (stereo not given) do in these assays?
Six1-Eya2 inh: -2; Sfp PPTase inh: 26%; D2 PAM: -2; TRPV1 PAM: 3; CtBP-E1A blk: 22; D2 ag: 1.6; PINK1 expr mod: 0.9%

Results for O=S(=O)(NCC(c1cccnc1)N1CCN(Cc2ccccc2)CC1)c1ccc(Cl)cc1 (stereo not given) ?
Six1-Eya2 inh: -2; Sfp PPTase inh: 1%; D2 PAM: -6; TRPV1 PAM: 1; CtBP-E1A blk: 3; D2 ag: -0.6; PINK1 expr mod: -0.8%

Results for Cc1ccc(OCC(=O)NNC(=O)Cn2nnc(-c3ccccc3)n2)cc1 ?
Six1-Eya2 inh: 8; Sfp PPTase inh: 9%; D2 PAM: -2; TRPV1 PAM: 5; D2 ag: -2.1; PINK1 expr mod: 1.1%

What do the screens show for `CN(C)CCN1CC(O)=C(c2nc3ccccc3s2)C1=N`?
Six1-Eya2 inh: 10; Sfp PPTase inh: 5%; D2 PAM: -3; TRPV1 PAM: -13; CtBP-E1A blk: -4; D2 ag: -3.1; PINK1 expr mod: -1.0%

What do the screens show for `COc1ccc(NC(=O)C(C)N(c2ccc(C)cc2)S(C)(=O)=O)c(OC)c1` (stereo not given)?
Six1-Eya2 inh: -6; Sfp PPTase inh: -3%; D2 PAM: -6; TRPV1 PAM: 1; CtBP-E1A blk: -1; D2 ag: -1.5; PINK1 expr mod: 0.7%

How did CCOc1ccccc1CNC(=O)c1cc2occc2n1C do in these assays?
Six1-Eya2 inh: -29; Sfp PPTase inh: -21%; D2 PAM: 0; TRPV1 PAM: 5; CtBP-E1A blk: -14; D2 ag: 2.0; PINK1 expr mod: -0.3%

What do the screens show for `COc1ccc(OCc2cc(C(=O)NC(C)c3nc(C)cs3)no2)c(Cl)c1` (stereo not given)?
Six1-Eya2 inh: -2; D2 PAM: 1; CtBP-E1A blk: 3; D2 ag: -1.3; PINK1 expr mod: -0.7%

What do the screens show for `CCC(C)c1ccccc1N1CC(C(=O)NCCc2ccc(OC)c(OC)c2)CC1=O` (stereo not given)?
Six1-Eya2 inh: -6; D2 PAM: -3; TRPV1 PAM: 1; CtBP-E1A blk: 13; D2 ag: -1.2; PINK1 expr mod: -0.9%

Results for O=C(CC1CCCCC1)NCc1ccccc1Cl ?
Six1-Eya2 inh: 3; Sfp PPTase inh: 4%; D2 PAM: -4; TRPV1 PAM: -14; CtBP-E1A blk: 5; D2 ag: -2.6; PINK1 expr mod: -0.6%

What do the screens show for `O=C(NCc1ccc(OC(F)(F)F)cc1)c1cccc2c1C(=O)c1ccc(N3CCCC3)cc1S2(=O)=O`?
Six1-Eya2 inh: 19; D2 PAM: -10; CtBP-E1A blk: -12; D2 ag: -2.6; PINK1 expr mod: -0.8%

Results for CC1CCC(NC(=O)Nc2cccs2)CC1 (stereo not given) ?
Six1-Eya2 inh: -15; Sfp PPTase inh: -20%; D2 PAM: -9; TRPV1 PAM: -16; CtBP-E1A blk: -19; D2 ag: -5.4; PINK1 expr mod: 0.9%

Results for CN(Cc1nc2c(s1)CCCC2)C(=O)CCc1nnc(-c2ccc3c(c2)OCO3)o1 ?
Six1-Eya2 inh: -3; Sfp PPTase inh: 4%; D2 PAM: -8; TRPV1 PAM: -5; CtBP-E1A blk: -1; D2 ag: -1.5; PINK1 expr mod: -0.8%
